Sa growth 42C: inhibitors of Staphylococcus aureus growth at 42 °C; S. aureus RN4220 growth, OD600, 20 h; hits give low values; relative growth, % (concentration not given with the values); 170,000 compounds, 0.53% hits;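 active = growth at 42 °C up to 50% and 20 or more points under that at 30 °C, or under 10% at both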;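 note: 300 nL library stock went into each well; scaled to the means of positive and negative controls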
GIV-Gai inh: blocks GIV peptide binding to rat Galpha-i3; 210,000 compounds, 0.42% hits; Galpha-i3/FITC-GIV peptide fluorescence polarization, 90 min; hits give low values; scaled: aluminum fluoride 0%, vehicle 100%; percent of control (FP), % (test concentration not listed);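 active = replicate mean at 85% of control or lower, very high polarization wells dropped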;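 note: wells of about 15 µL received 100 nL stock; the first replicate is given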
Target sequence (P08753 whole entry, looked up): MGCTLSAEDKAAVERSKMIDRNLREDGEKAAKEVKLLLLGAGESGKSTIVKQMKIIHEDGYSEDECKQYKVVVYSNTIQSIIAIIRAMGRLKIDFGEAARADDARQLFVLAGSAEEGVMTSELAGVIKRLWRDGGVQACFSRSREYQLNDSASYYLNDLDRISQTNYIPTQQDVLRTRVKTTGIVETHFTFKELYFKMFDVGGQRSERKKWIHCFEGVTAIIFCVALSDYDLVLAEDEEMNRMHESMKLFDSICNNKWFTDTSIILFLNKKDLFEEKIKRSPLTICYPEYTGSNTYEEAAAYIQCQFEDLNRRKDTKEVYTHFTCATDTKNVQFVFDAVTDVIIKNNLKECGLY
HCMV UL50-53 inh: disrupts HCMV UL50-UL53 complex binding. HTRF UL50-UL53 interaction, normalized percent inhibition. inhibition, % (no concentration beside the values). 190,000 compounds, 0.15% hits;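 active = both replicates at 50% or more, plus weaker picks with an unusually low signal ratio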;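 note: stock transfer was 100 nL into about 20 µL; 0% = negative control wells and 100% = wells with untagged competitor protein; inactives centre near -12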
Sa growth 42C second temp: also measured in Sa growth 42C; calls as there; relative growth, %; measured here: growth at 30 °C;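 optical density after 20 h as mean of two plates; 100% = untreated growth and lower means inhibition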
Starred values were filed as active, the others as inactive; / = no result given; & = joins results of further samples.

SMILES	Sa growth 42C	Sa growth 42C second temp	GIV-Gai inh	HCMV UL50-53 inh
CCN1C(=O)C2C(C1=O)N1C(c3ccccc3)C3C(=O)N(CC)C(=O)C3N1C2c1ccccc1 (stereo not given)	95	96	111	-7
O=C(Nc1ccccc1Cl)C1CCN(c2nnc(-n3cccc3)s2)CC1	/	/	94	-14
Cc1nc(N2CCC(C(=O)NCCC(C)C)CC2)c2c(C)c(C)oc2n1	/	/	99	-10
CCOc1ccccc1C1C(C(N)=O)=C(C)Nc2nc(-c3ccccc3Cl)nn21 (stereo not given)	99	87	109	7
O=C(NCc1ccccc1)C(=S)NC1CCCC1	103	104	104	-7
CN1CCN(Cc2c(O)ccc3c(=O)c(-c4ccc(Cl)cc4)c(C(F)(F)F)oc23)CC1	/	/	105	-25
CC(C(=O)NC1(C#N)CCCCC1)N1CCN(S(=O)(=O)c2ccc(Br)s2)CC1 (stereo not given)	104	94	/	-5
O=C(CC1CC2CCC1C2)NCc1ccc(F)cc1 (stereo not given)	90	84	111	/
O=C(Nc1cccc(Cl)c1)c1ccc(Cl)cc1	83	66	102	/
CC1=C(C(=O)NCc2ccccc2C)C2(CCCCC2)OC1=O	97	88	96	/
CC(C)C[C@H](NC(=O)[C@@H](O)[C@H](N)Cc1ccccc1)C(=O)O	76	85	104	-3&9&9&-4&-14
Cc1ccc(CCNc2ccccc2)c[n+]1[O-]	98	87	106	-15
NC1=NC(c2ccccc2)N2C(=N1)Sc1ccccc12 (stereo not given)	85	93	107	/
COc1ccc(-c2nc3sc(CCNS(=O)(=O)c4c(C)cc(C)cc4C)c(C)n3n2)cc1	111	88	98	/
O=C1CSC2(C(=O)N(Cc3cccc(C(F)(F)F)c3)c3ccccc32)N1c1ccc(F)c(F)c1 (stereo not given)	90	63	103	/
CCCn1c(=O)c(=O)[nH]c2c(=O)oc3ccccc3c21	89	75	102	-61
Cn1c(=O)n(C)c2cc(C3C(C#N)=C(N)Oc4c3ccc3ccccc43)ccc21 (stereo not given)	95	69	103	-25
COc1ccccc1C(=O)N=C1SC2CS(=O)(=O)CC2N1c1ccccc1 (stereo not given)	96	90	102	-18
CCOC(=O)c1cnc2c(Cl)cccc2c1NCCN1CCOCC1	128	88	106	/
c1csc(-c2ccnc3nc(-n4cccc4)nn23)c1	/	/	104	-19
O=C(O)CSc1nnc2c(n1)OC1(CCCC1)Nc1ccccc1-2	91	85	103	/
Cc1ccc(COC2CN(S(=O)(=O)c3ccc(C(C)(C)C)cc3)C2)cc1	/	/	99	-8
CCOc1ccccc1NC(=O)CN1C(=O)/C(=C/c2cccc(Br)c2)SC1=S	/	/	105	-24
CC1CCCC(C)N1C(=O)COC(=O)/C=C/c1ccccc1Cl (stereo not given)	104	90	/	-47
Cc1cc(C)cc(CC(CC(=O)O)C(=O)NCc2ccccc2)c1 (stereo not given)	106	128	/	-2
CC(C)Sc1ncc(Cl)c(C(=O)N(Cc2ccc(F)cc2)C2CCS(=O)(=O)C2)n1 (stereo not given)	101	84	98	-27
COC(=O)CSc1cccc2cccnc12	93	83	100	-35
CCOC(=O)C1CCN(c2cc(C(=O)Nc3ccc(OCC)cc3)ccn2)CC1	104	101	111&102	2&-4
CCc1cc(C(=O)Cc2nc3ccccc3n2C)c(O)cc1O	114	99	/	3
O=C1ON=C(c2cccs2)/C1=C/C=C/c1ccccc1	98	88	/	-13
O=C(NCc1cccnc1)c1ccc(Cn2c(SCc3ccc(F)cc3Cl)nc3ccncc32)cc1	/	/	104	-18
COc1cccc(CNC(=O)c2ccc(N3CCCC3)c(S(=O)(=O)N3CCCC3)c2)c1	/	/	99	-28
CC1CCN(C(=S)SCC(=O)O)CC1	91	90	/	-14
O=C(O)c1ccccc1OCCN1CCCC1=O	91	76	103	-14
CCN(c1ccccc1)S(=O)(=O)c1ccc(C)cc1	98	88	/	-7
Cc1ccc(-c2nc(CCNC(=O)c3ccc(C)c(C)c3)cs2)cc1	69	95	98	/
Cc1ccc(-c2cncnc2NC(=O)c2ccccc2)cc1	91	83	103	-9
Cc1cc(=O)n(C)c(=O)n1CCCCO	93	87	/	-22
Cc1cccc(Nc2nc(N)nc(C(F)(F)F)n2)c1	107	100	105	-32
Cc1ccc(OCCSc2nc(-c3cccs3)nc3cc(=O)[nH]n23)cc1Cl	118	100	103	/
O=C(NC1CCCC1)C(c1ccccc1)N(Cc1cccs1)C(=O)c1csnn1 (stereo not given)	95	87	108	-5
Cc1ccccc1C(=O)n1nc(-c2cccnc2)nc1NCc1ccccc1	108	90	103	-12
CCOC(=O)c1c(CN2CCN(CC#N)CC2)n(-c2ccccc2)c2ccc(O)cc12	88	70	100	-6
CCC(=O)NC(Nc1sc2c(c1C(N)=O)CCCC2)(C(F)(F)F)C(F)(F)F	100	78	/	-13
COC(=O)c1cc(OC)c(OC)cc1NC(=O)c1nc(-c2ccccc2)oc1C	82	91	/	17
CC(OC(=O)c1ccc(S(=O)(=O)NCc2ccco2)cc1)C(=O)Nc1ncc(Cl)cc1Cl (stereo not given)	88	89	/	-28
CC(=O)N1CCCSc2ccc(S(=O)(=O)N3CCCCC3)cc21	/	/	99	-1
CCc1ccc(NS(=O)(=O)c2ccc(OC)cc2)cc1	100	73	/	3
COc1cccc(CNC(=O)CN2C(=O)COc3ccc(S(=O)(=O)N4CCCCCC4)cc32)c1	119	82	103	/
Cc1n[nH]c(C)c1CCc1nc2c3ccccc3nc(SCC(=O)Nc3ccc(F)cc3)n2n1	82	84	107	/
N#CC(C#N)=C(N)/C(C#N)=C/c1cccs1	77	62	108	-81
O=c1cc(O)sc2ccccc12	57	70	108	-1
Cc1cccnc1NC(=O)C1CCCN(c2ncnc3onc(C)c23)C1 (stereo not given)	/	/	100	10
CCC(=O)Nc1ccc2nc(SCCOc3ccc(C)cc3OC)sc2c1	99	83	96	-6
N#CCSc1nc2ccccc2c(=O)n1CCCC(=O)NCC1CCCO1 (stereo not given)	95	88	103	-29
CN(C)S(=O)(=O)c1ccc(-c2nc3ccccc3s2)cc1	69	88	/	-22
O=c1c(O)c(N2CCN(c3ccccc3)CC2)c1=O	/	/	104	-20
CCOc1ccc(/C(=N/O)C(C)NO)cc1 (stereo not given)	50	49	94	-5
COc1ccccc1C(=O)COC(=O)Cc1ccccc1F	94	91	/	-16
CNC1(C)[C@H]2CC[C@H](C2)C1(C)C (stereo not given in full)	100	97	105	-18

(next part)
SMILES	Sa growth 42C	Sa growth 42C second temp	GIV-Gai inh	HCMV UL50-53 inh
CCCn1nc(-n2cnnc2)c(NC(=O)C2CC(=O)N(c3ccc(C)cc3)C2)c1C (stereo not given)	/	/	100	-14
S=C(Nc1cccnc1)N(CCc1ccccc1)Cc1ccccc1	75	54	/	1
CC1(C)C(C)(C(=O)O)C12CCC2C(=O)NCc1ccco1 (stereo not given)	82	89	103	-27
CCOC(=O)C1=CN(Cc2ccc(F)cc2)C=C(C(=O)OCC)C1c1ccc(C(F)(F)F)cc1	77	95	97	/
CCOC(=O)c1c(N)sc(C(N)=O)c1C	/	/	102	-35
Cc1cccc(NC(=O)NCc2nc(-c3cccc(C)c3)no2)c1	104	98	108	/
CC(=O)N1N=C(N)SC1c1ccccc1 (stereo not given)	77	87	101	-27
Cc1ccc(NC(=O)CCCn2c(=O)c3cccn3c3ccccc32)cc1C	115	103	100	-24
CCCCN(C)c1sc(S(C)(=O)=O)nc1S(=O)(=O)c1ccc(C)cc1	92	85	102	/
CCN(CC)CCNC(=O)C1CCCN(C(=O)c2[nH]c(C)c(C(=O)OC)c2C)C1 (stereo not given)	/	/	97	0
CCN1CCN(C(=O)/C(C#N)=N/Nc2cccc3c(=O)[nH][nH]c(=O)c23)CC1	84	85	/	-48
CC1CCCCN1C(=O)CN1CCSc2ccccc21 (stereo not given)	124	94	107&108	-28
O=C(Nc1cccc(-c2cn3cccnc3n2)c1)c1cc(Br)ccc1Cl	107	98	98	/
O=C(CN1CCN(c2ncnc3scc(-c4ccc(Cl)cc4)c23)CC1)NC1CC1	87	81	/	-22
O=S(=O)(/C=C/c1ccccc1)N1CCN(Cn2cnc3ccccc32)CC1	95	101	/	-20
O=C(c1ccco1)n1nc(-c2ccc(Cl)cc2)nc1NCc1ccccc1	96	91	106	-17
CN(C(=O)COC(=O)c1ccc(=O)[nH]c1)C1CCCCC1	107	88	/	-6
Cc1cccc(NC(=O)C(=O)NCCc2sc(-c3ccccc3)nc2C)c1C	124	88	101	/
COc1ncnc(NS(=O)(=O)c2ccc(N)cc2)c1OC	83&73	77&55	110	-31&-43&-26
CCOC(=O)c1nc(C)nc(Sc2ccccc2)c1C	96	108	98	-4

Arranged by value in Sa growth 42C second temp (high to low): some entries from above.
SMILES,Sa growth 42C,Sa growth 42C second temp,GIV-Gai inh
CNC1(C)[C@H]2CC[C@H](C2)C1(C)C (stereo not given in full),100,97,105
COc1ccccc1C(=O)COC(=O)Cc1ccccc1F,94,91,/
CCN1CCN(C(=O)/C(C#N)=N/Nc2cccc3c(=O)[nH][nH]c(=O)c23)CC1,84,85,/
CC(C)Sc1ncc(Cl)c(C(=O)N(Cc2ccc(F)cc2)C2CCS(=O)(=O)C2)n1 (stereo not given),101,84,98

(continued)
SMILES	Sa growth 42C	Sa growth 42C second temp	GIV-Gai inh	HCMV UL50-53 inh
CCc1ccc(OCC(N)=O)cc1	103	84	101	/
O=C(COc1ccc2c(c1)OCO2)NCCC1=CCCCC1	106	96	/	-8
COc1ccc(Cn2ccc3nc4ccn(Cc5ccc(OC)cc5)c(=O)c4cc3c2=O)cc1	104	90	105	-12
Cc1cc(C)c(C#N)c(=O)[nH]1	97	90	/	17
O=C(COC(=O)C(Cc1ccccc1)N1C(=O)c2ccccc2C1=O)c1ccc(Br)cc1 (stereo not given)	100	99	97	/
CCCCCn1c(C(C)NC(=O)c2ccccc2)nc2ccccc21 (stereo not given)	96	89	105	-23
Cn1c(C(C#N)C(=O)c2ccc(-c3nc4ccccc4s3)s2)nc2ccccc21 (stereo not given)	82	87	/	-12
O=C(Nc1ccccc1)NN1CC(=O)N(c2ccc(Cl)cc2)CC1=O	105	98	106	-14
Cc1cc(=O)n2[nH]c(CN(c3ccc(Cl)cc3)S(=O)(=O)c3ccccc3)nc2n1	/	/	104	12
NS(=O)(=O)c1ccc(CCNC(=O)c2ccc(N3CCCC3=O)cc2)cc1	97	92	/	-26
Cc1nn(CCC(N)=S)c2nc(-c3ccccc3)ccc12	103	58	/	8
CCOC(=O)C1NC(=O)CC1c1ccccc1 (stereo not given)	94	82	103	-2
N#Cc1ccccc1COC(=O)c1ccc(-n2cccc2)cc1	114	95	/	-17
CCOC(=O)C1(c2cn(C)c3ccccc23)Sc2ccccc2NC1=O (stereo not given)	106	73	/	-31
COc1ccc(NC(=O)c2cc3c(C)nn(-c4ccccc4)c3s2)c(OC)c1	101	88	103	-34
CCn1c2c(c(SCc3ccc(F)cc3)nc1=O)CCC2	/	/	101	-10
O=C(O)COCC(=O)Nc1ccccn1	110	106	103	2
O=C(Nc1ccc2c(c1)OCCO2)c1ccc(Nc2cc(-c3ccccc3)ncn2)cc1	/	/	100	-14
Cc1ccsc1C(=O)Nc1cc2c(cc1Oc1ccccc1)n(C)c(=O)c(=O)n2C	/	/	90	-23
Cc1c(C(=O)O)sc2nc(-c3ccccc3)cn12	120	90	102	6
O=C(c1cc(=O)c2ccccc2o1)N1CCN(c2n[nH]c(=O)[nH]c2=O)CC1	103	94	/	7
CSc1c(C#N)c(N)nc(SCc2ccc(C)cc2)c1C#N	114	73	100	1
Cc1sc2c(c1C)c(=O)n(CCc1ccccc1)c(=O)n2Cc1ccccc1Cl	100	99	110	9
CN(C)C(=O)c1ccc2c(c1)nnn2C1CCN(C(=O)Nc2ccc(F)cc2)CC1	/	/	100	7
O=C(c1cc2cc(Cl)ccc2[nH]1)N1CCCN(c2ccc(=O)n(-c3ccccc3)n2)CC1	/	/	105	-17
CCOc1cc(/C=C2\SC(=S)NC2=O)cc(Cl)c1OC(=O)c1ccc(OC)cc1	93	68	115	/
COc1ccc2cc3n(c2c1)CC(C)(C(=O)NCC1CCCO1)N(CCC(C)C)C3=O (stereo not given)	/	/	99	-1
Cc1c(Cl)cccc1NC(=O)CCn1cnnn1	97&98	87&100	100&100	-12&-33
CCCCN(Cc1ccccc1)C(=O)c1cc2c(=O)n3ccccc3nc2n1C	/	/	106	-40
O=C1CCC(=O)N1c1ccc2c(c1)oc1ccccc12	117	86	/	-1

Part of the list above in another layout:
Sequence of screens: Sa growth 42C	Sa growth 42C second temp	GIV-Gai inh	HCMV UL50-53 inh
O=C1CCC(=O)N1c1ccc2c(c1)oc1ccccc12
 : 117	86	/	-1
O=C(c1cc(=O)c2ccccc2o1)N1CCN(c2n[nH]c(=O)[nH]c2=O)CC1
 : 103	94	/	7
O=C(c1cc2cc(Cl)ccc2[nH]1)N1CCCN(c2ccc(=O)n(-c3ccccc3)n2)CC1
 : /	/	105	-17
Cc1sc2c(c1C)c(=O)n(CCc1ccccc1)c(=O)n2Cc1ccccc1Cl
 : 100	99	110	9

Compound profiles, from the list above. Values in the order: Sa growth 42C, Sa growth 42C second temp, GIV-Gai inh, HCMV UL50-53 inh
Profile of O=C(c1cc2cc(Cl)ccc2[nH]1)N1CCCN(c2ccc(=O)n(-c3ccccc3)n2)CC1 : /, /, 105, -17
Profile of O=C(c1cc(=O)c2ccccc2o1)N1CCN(c2n[nH]c(=O)[nH]c2=O)CC1 : 103, 94, /, 7
Profile of O=C1CCC(=O)N1c1ccc2c(c1)oc1ccccc12 : 117, 86, /, -1
Profile of CSc1c(C#N)c(N)nc(SCc2ccc(C)cc2)c1C#N : 114, 73, 100, 1
Profile of COc1ccc2cc3n(c2c1)CC(C)(C(=O)NCC1CCCO1)N(CCC(C)C)C3=O (stereo not given) : /, /, 99, -1

From PubChem BioAssay
